Bead autofluor: flagged as autofluorescent in microsphere protease counterscreen | compound autofluorescence counterscreen, microsphere flow cytometry; hits give high values | fluorescence intensity (no concentration beside the values) | 3.1% of 360,000 active;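 active means at least 3 SD above the mean of all compounds, about 16000 in these data; inconclusive means too few beads counted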;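 further: 100 nL of 1 mM stock went into each well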
Sa ugtP lethal: growth inhibition of S. aureus ugtP deletion strain; S. aureus RN4220 ugtP deletion, OD600 growth, 16 h; some inactives read as strong as hits; AID 1259309; growth inhibition, % (concentration not given with the values); 0.54% of 330,000 active;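 active means z-score under -3 and OD600 up to 0.15 on both plates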;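 further: plate controls were untreated wells for no effect and antibiotic for full effect; wells of about 80 µL received 100 nL stock; the first replicate is given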
RN4220 kill: kills Staphylococcus aureus RN4220; S. aureus RN4220 growth, OD600, 16 h; inhibition, % (concentration not given with the values); 0.33% of 330,000 active; AID 1259311;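 active means z-score of -3 or lower and OD600 up to 0.18 on both plates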;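 further: plate controls were untreated cells for no effect and reference antibiotic for full effect; stock transfer was 100 nL into about 80 µL; one replicate is shown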
Mtb hypoxia rep: reduces hypoxia-regulated biosensor signal in M. tuberculosis | M. tuberculosis hypoxia-regulated fluorescent reporter, fluorescence | fluorescence inhibition, % (concentration not given with the values) | 0.1% of 300,000 active;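 active means 35 to 45% if threefold the growth effect, above 45% if 1.5-fold the growth effect; inactive means the rest, general growth blockers included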;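 further: wells of about 50 µL received 100 nL stock; 0% = vehicle wells and 100% = reference inhibitor wells; whole bacteria with a GFP reporter of the hypoxia response; strong numbers were not always called active; many hits fall short of the cut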
PrP UTR inh: suppresses PrP 5' UTR mRNA reporter expression | AID 488862 | cell-based PrP 5' UTR mRNA reporter, plate reader | 0.35% of 340,000 active | inhibition, % (no concentration beside the values);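 active means every replicate at 50% or more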;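 further: 0 = median of the neutral control wells; tested in H4 reporter cells; numbers are from one replicate; inactives centre near -14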
BJeLR viability: BJeLR cell viability loss | BJeLR (HRASV12) viability, CellTiter-Glo ATP luminescence, 48 h; reference of the scale not given here | AID 1554 | 0.17% of 300,000 active | inhibition, % (no concentration beside the values);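 active means replicate mean above 50%; inconclusive means above 50% but judged a plate artefact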;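 further: 50 nL library stock added to about 25 µL; numbers are from one replicate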
Mtb hypoxia rep growth: also measured in Mtb hypoxia rep; calls as there; growth inhibition, %; measured here: M. tuberculosis growth (absorbance);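 0% = vehicle and 100% = reference antibiotic; read after six days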
An asterisk follows results filed as active; ? = inconclusive; nt = no result given.

nr	SMILES	Bead autofluor	Sa ugtP lethal	RN4220 kill	Mtb hypoxia rep
1	Cc1c(Cl)cccc1N1C(=O)CC(NNC(=O)c2ccc3c(c2)OCO3)C1=O (stereo not given)	?	-1	-0.9	-5
2	COCCN(C(=O)COC(=O)CCS(=O)(=O)c1ccccc1)c1c(N)n(Cc2ccccc2)c(=O)[nH]c1=O	3885	8	5.1	-3
3	COc1ccc(CCC(=O)NCCc2cnc[nH]2)cc1	3466	0	2.0	3
4	CCOC(=O)c1c(C)c(C(=O)Nc2ccc3c(c2)OCCO3)c(C)n1C	23007*	-6	5.1	6
5	COc1ccc(S(=O)(=O)Nc2ccc3c(c2)C(=O)N(C(C)CO)CC(C)C(CN(C)C(=O)Nc2c(C)noc2C)O3)cc1 (stereo not given)	nt	-5	3.8	7
6	Cc1ccc(S(=O)(=O)NCCC(=O)OCC(=O)NCCc2ccccc2)cc1C	6869	8	2.7	-2
7	COc1cc(/C=N/NC(=O)c2sc(N)c(C#N)c2C)ccc1O	2409	nt	nt	nt
8	O=C(COc1coc(CN2CCc3ccccc3C2)cc1=O)Nc1cccc(F)c1	6262	1	-0.8	-6
9	O=C(O)COc1ccc(/C=N/NC(=O)C(O)(c2ccccc2)c2ccccc2)cc1	3953	nt	nt	nt
10	COC(=O)C1=C(O)/C(=C/c2ccc(OCC(=O)Nc3ccccc3)cc2)N=C1C	5562	10	-4.2	7

nr	Mtb hypoxia rep growth	PrP UTR inh	BJeLR viability
1	13	nt	nt
2	-13	-6	-7
3	6	-32	0
4	16	-38	2
5	8	nt	nt
6	-5	-3	0
7	nt	-3	4
8	1	-13	-13
9	nt	-9	-4
10	5	-30	8

The list goes on:
nr	SMILES	Bead autofluor	Sa ugtP lethal	RN4220 kill	Mtb hypoxia rep
11	COc1ccc(CC(NC(C)=O)C(=O)NC2CCN(c3nc(C)cc(C)c3C#N)CC2)cc1 (stereo not given)	3331	-4	5.0	10
12	CCOC(=O)Cc1nn(Cc2ccc(Cl)cc2)c(=O)c2ccccc12	1924	3	1.6	4
13	C=CCn1ccc(=O)nc1SC	3109	4	3.8	0
14	CC(C)c1ccc(/C=C/C(=O)n2nnc3ccccc32)cc1	3316	26	-2.6	6
15	Cc1cc(C)c2cc(C)c3nnc(SCC(=O)NCc4ccc5c(c4)OCO5)n3c2c1	?	7	-6.4	-15
16	O=c1c(-c2ccccc2)n[nH]c2ccccc12	4982	-2	0.0	nt
17	Cc1cc(C(=O)NNC(=S)NCc2ccco2)n(C)n1	3088	9	8.1	4
18	Clc1ccc2c(N3CCNCC3)ccnc2c1	10472	-2	0.4	7
19	COc1ccccc1C1SCCN1S(C)(=O)=O (stereo not given)	2481	-1	11	-6
20	CCOc1ccc(N2C(=O)CC(Sc3nc4ccc(OCC)cc4s3)C2=O)cc1 (stereo not given)	2737	7	7.1	-5

nr	Mtb hypoxia rep growth	PrP UTR inh	BJeLR viability
11	1	-16	-5
12	2	-4	4
13	-6	5	nt
14	6	-18	-24
15	-3	-6	-2
16	nt	-124	-7
17	1	-19	4
18	3	-17	13
19	5	-11	-1
20	10	-6	-7

Some of the entries so far, with two lines to a compound.
Every second line gives: Bead autofluor	Sa ugtP lethal	RN4220 kill	Mtb hypoxia rep	Mtb hypoxia rep growth	PrP UTR inh	BJeLR viability
13	C=CCn1ccc(=O)nc1SC
 : 3109	4	3.8	0	-6	5	nt
12	CCOC(=O)Cc1nn(Cc2ccc(Cl)cc2)c(=O)c2ccccc12
 : 1924	3	1.6	4	2	-4	4

(listing goes on)
nr	SMILES	Bead autofluor	Sa ugtP lethal	RN4220 kill	Mtb hypoxia rep
21	CCOC(=O)C1=C(COC(=O)c2ccccc2OC)NC(=O)NC1C (stereo not given)	?	3	4.0	3
22	O=C1NC(=O)C(Nc2ccccc2)C(=O)N1	3184	10	4.2	12
23	O=C(Nc1ccccc1O)/C(=C\c1ccccc1)NC(=O)c1ccccc1	3078	7	41	7
24	Cc1[nH]c2ccccc2c1C=NNC(=O)c1cc(-c2cccs2)[nH]n1	nt	-17	-2.4	17
25	CN(C)S(=O)(=O)c1ccc(C(=O)NCC(=O)NN=Cc2ccccc2)cc1	nt	-9	-0.2	-10
26	COCCC(=O)Nc1ccc2c(c1)CN(C(=O)CCOC)CC2	3376	4	2.8	7
27	CC(=O)Oc1ccc2nc(-c3ccc(Br)o3)oc(=O)c2c1	3834	-3	2.8	-5
28	CCOC(=O)c1sc(N)c(C(=O)OCC)c1C	6227	21	5.1	-12
29	CCOC(=O)c1ccc(NC(=O)CCNC(=O)c2ccc([N+](=O)[O-])cc2)cc1	11076	-3	-4.7	-2
30	Cc1cccc(C)c1NC(=O)CSc1nnc(NC(=O)C2CC2)s1	4315	4	2.6	12

nr	Mtb hypoxia rep growth	PrP UTR inh	BJeLR viability
21	-7	-25	nt
22	8	1	nt
23	3	-23	nt
24	8	nt	nt
25	8	nt	nt
26	1	-23	1
27	9	-11	9
28	3	nt	-4
29	3	-22	-1
30	9	-25	0

(cont.)
nr	SMILES	Bead autofluor	Sa ugtP lethal	RN4220 kill	Mtb hypoxia rep
31	Nc1nc(-c2ccccc2)cc(-c2ccccc2O)n1	9129	-10	2.9	1
32	CC(=O)c1ccc(S(=O)(=O)NCC2(N3CCOCC3)CCCCC2)cc1	5697	3	2.8	-1
33	COc1ccc(CC2(C)OC(c3ccc([N+](=O)[O-])cc3)=NN2C(C)=O)cc1 (stereo not given)	4117	3	7.1	18
34	COc1ccc(C)cc1NC(=O)NCc1ccccn1	2133	-2	1.6	7
35	O=C(CCc1nnc(Cc2c[nH]c3ccccc23)o1)NCC1CC12CCCCC2 (stereo not given)	3377	18	7.9	4
36	Nc1c(-c2ccccc2Cl)cnn1-c1cccc([N+](=O)[O-])c1	9816	-9	1.8	4
37	COc1cc(C)nc(NC(=O)COc2ccc(Cl)cc2C)n1	9873	-5	6.5	12
38	CC1OC2(C)OC(=N)C1(C#N)C(C#N)(C#N)C2c1ccccc1 (stereo not given)	2515	6	5.0	17
39	CCOC(=O)c1nc(Nc2ccc(C)cc2)c2ccccc2n1	2533	0	7.8	6
40	CSc1ccccc1C(=O)OCC(=O)NC1CCS(=O)(=O)C1 (stereo not given)	4692	2	1.3	7

nr	Mtb hypoxia rep growth	PrP UTR inh	BJeLR viability
31	-12	-19	4
32	5	-15	nt
33	8	-15	5
34	6	-11	1
35	3	-22	-1
36	12	-14	7
37	4	-31	-8
38	0	-3	16
39	9	5	-3
40	9	-11	2

(more compounds)
nr	SMILES	Bead autofluor	Sa ugtP lethal	RN4220 kill	Mtb hypoxia rep
41	COc1ccc2c3c([nH]c2c1)C1CC2C(CC(O)C(OC)C2CO)CN1CC3 (stereo not given)	4545	-5	1.1	nt
42	CC(C)=CC(=O)OCC(=O)NC(=O)NC(C)(C)C	3552	8	5.0	nt
43	CCN(C(=O)CSc1nnc(-c2ccc(F)cc2)c2ccccc12)C1CCS(=O)(=O)C1 (stereo not given)	4638	-5	-4.5	-8
44	COC(=O)c1c(Cc2ccccc2Cl)c[nH]c1C	2207	-8	-2.8	-5
45	COc1cc(CC(=O)N2CCc3ccccc32)cc(OC)c1OC	8704	-2	3.6	4
46	COc1cc(/C=N/NC(=O)c2sc3ccccc3c2Cl)ccc1OC(=O)c1ccc([N+](=O)[O-])cc1	4964	nt	nt	nt
47	O=C(NNC(=O)C1CC(c2cccnc2)=NO1)Nc1cccc(F)c1 (stereo not given)	2366	0	0.7	nt
48	C/C(CC(=O)NC1C2CC3CC(C2)CC1C3)=N\NC(=O)Cc1cccs1 (stereo not given)	11225	nt	nt	nt
49	COc1ccc(CNC(=O)CN(C(=O)c2csnn2)c2ccc(C(C)=O)cc2)cc1	3468	7	-1.0	7
50	Cc1cccc(-n2cnc3c(c2=O)c2nc4ccccc4nc2n3Cc2ccco2)c1	4226	3	2.6	nt

nr	Mtb hypoxia rep growth	PrP UTR inh	BJeLR viability
41	nt	-18	4
42	nt	-4	nt
43	7	-24	-11
44	-2	-12	1
45	8	-10	7
46	nt	-5	7
47	nt	-17	8
48	nt	2	1
49	-4	-27	-5
50	nt	-16	-11

Continued:
nr	SMILES	Bead autofluor	Sa ugtP lethal	RN4220 kill	Mtb hypoxia rep
51	O=C(N/N=C/c1ccc(F)cc1)c1ccccc1	4513	nt	nt	nt
52	CC(=O)c1c(C)n([O-])c2cc(F)c(F)cc2[n+]1=O	4319	64	59	nt
53	O=C1CCCc2c1cc(-c1ccccc1)n2-c1ccccc1	10333	9	5.1	11
54	C[C@@]12CCC3[C@@](CCC4[C@@]3(C)CCC[C@@]4(C)C(=O)N3CCOCC3)(CC1=O)C2 (stereo not given in full)	3940	0	-3.4	7
55	CCCCNc1cc(C)nc(NCc2ccccc2)n1	2358	-39	-21	-10
56	CC(C)OCCCNC(=O)CN1C(=O)c2cccc3cccc1c23	3144	5	4.9	17
57	COc1cc2ccc(=O)oc2c(CC=C(C)C)c1OC	5426	7	1.1	nt
58	CC(C)CC(=O)Nc1ccc(C(=O)NNC(=S)NC(=O)C2CCCCC2)cc1	12996	-11	11	8
59	COc1ccc(C(=O)/C=C2\NCC3c4ccccc4CCN3C2=O)cc1 (stereo not given)	3329	16	12	7
60	Cc1ccc(CN2CCNC(=O)C2CC(=O)NC2CCCCCC2)o1 (stereo not given)	2293	nt	nt	nt

nr	Mtb hypoxia rep growth	PrP UTR inh	BJeLR viability
51	nt	-46	3
52	nt	-30	6
53	7	-22	6
54	0	-7	nt
55	6	-30	11
56	11	-6	1
57	nt	-1	-2
58	9	-13	-2
59	10	-19	0
60	nt	-37	-7

Later entries.
nr	SMILES	Bead autofluor	Sa ugtP lethal	RN4220 kill	Mtb hypoxia rep
61	O=C(CCC1CCCN(C(=O)COc2ccccc2)C1)N1CCN(c2ccccn2)CC1 (stereo not given)	4553	12	-0.9	11
62	Cc1ccc(S(=O)(=O)NC2(C(=O)O)CCCC2)cc1	3815	6	4.1	18
63	Cc1ccn2c(c1)nc(=S)n2C(=O)c1ccco1	nt	0	1.1	12
64	O=C(Nc1nc(-c2ccccc2)cs1)NC1CCCCC1	10642	-32	-2.8	-2
65	CN(C)c1ccc(NC(=S)NCC2CCCO2)cc1 (stereo not given)	2571	1	3.6	9
66	COc1ccc(CCNC(=O)CSc2nncs2)cc1	2581	12	2.5	12

nr	Mtb hypoxia rep growth	PrP UTR inh	BJeLR viability
61	9	-1	1
62	13	-10	nt
63	14	nt	3
64	2	nt	0
65	3	-35	-4
66	0	-11	-31

Molecules above containing a halogen (13):
nr	SMILES	Bead autofluor	Sa ugtP lethal	RN4220 kill	Mtb hypoxia rep
1	Cc1c(Cl)cccc1N1C(=O)CC(NNC(=O)c2ccc3c(c2)OCO3)C1=O (stereo not given)	?	-1	-0.9	-5
8	O=C(COc1coc(CN2CCc3ccccc3C2)cc1=O)Nc1cccc(F)c1	6262	1	-0.8	-6
12	CCOC(=O)Cc1nn(Cc2ccc(Cl)cc2)c(=O)c2ccccc12	1924	3	1.6	4
18	Clc1ccc2c(N3CCNCC3)ccnc2c1	10472	-2	0.4	7
27	CC(=O)Oc1ccc2nc(-c3ccc(Br)o3)oc(=O)c2c1	3834	-3	2.8	-5
36	Nc1c(-c2ccccc2Cl)cnn1-c1cccc([N+](=O)[O-])c1	9816	-9	1.8	4
37	COc1cc(C)nc(NC(=O)COc2ccc(Cl)cc2C)n1	9873	-5	6.5	12
43	CCN(C(=O)CSc1nnc(-c2ccc(F)cc2)c2ccccc12)C1CCS(=O)(=O)C1 (stereo not given)	4638	-5	-4.5	-8
44	COC(=O)c1c(Cc2ccccc2Cl)c[nH]c1C	2207	-8	-2.8	-5
46	COc1cc(/C=N/NC(=O)c2sc3ccccc3c2Cl)ccc1OC(=O)c1ccc([N+](=O)[O-])cc1	4964	nt	nt	nt
47	O=C(NNC(=O)C1CC(c2cccnc2)=NO1)Nc1cccc(F)c1 (stereo not given)	2366	0	0.7	nt
51	O=C(N/N=C/c1ccc(F)cc1)c1ccccc1	4513	nt	nt	nt

nr	Mtb hypoxia rep growth	PrP UTR inh	BJeLR viability
1	13	nt	nt
8	1	-13	-13
12	2	-4	4
18	3	-17	13
27	9	-11	9
36	12	-14	7
37	4	-31	-8
43	7	-24	-11
44	-2	-12	1
46	nt	-5	7
47	nt	-17	8
51	nt	-46	3

nr	SMILES	Bead autofluor	Sa ugtP lethal	RN4220 kill	Mtb hypoxia rep
52	CC(=O)c1c(C)n([O-])c2cc(F)c(F)cc2[n+]1=O	4319	64	59	nt

nr	Mtb hypoxia rep growth	PrP UTR inh	BJeLR viability
52	nt	-30	6

Bioassay records from PubChem.
